Sa ugtP lethal – growth inhibition of ugtP-null S. aureus, primary screen, RN4220 ugtP deletion, OD600; 16 h; some inactives read as strong as hits; growth inhibition, % (test concentration not listed); 330,000 tested, 0.54% active;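 active = z-score under -3 and OD600 up to 0.15 on both plates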;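 note: plate controls were untreated wells for no effect and antibiotic for full effect; wells of about 80 µL received 100 nL stock; the first replicate is given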
Sa RN4220 lethal – growth inhibition of S. aureus RN4220, primary screen, OD600. AID 1259311, 2017. inhibition, % (test concentration not listed). 16 h. 330,000 tested, 0.33% active;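 active = z-score of -3 or lower and OD600 up to 0.18 on both plates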;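 note: plate controls were untreated cells for no effect and reference antibiotic for full effect; stock transfer was 100 nL into about 80 µL; one replicate is shown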
Autofluor counter – compound fluorescence in toxin protease inhibitor counterscreen. compound autofluorescence counterscreen, microsphere flow cytometry; active compounds read high. fluorescence intensity (no concentration beside the values). 360,000 tested, 3.1% active. AID 624483;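 active = at least 3 SD above the mean of all compounds, about 16000 in these data; inconclusive = too few beads counted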;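 note: 100 nL of 1 mM stock went into each well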
BJeLR viability – MLPCN primary cell-based screen for lethality selective to Ras in HRASV12 cells | BJeLR (HRASV12) viability, CellTiter-Glo ATP luminescence, 48 h; reference of the scale not given here | inhibition, % (no concentration beside the values) | 300,000 tested, 0.17% active;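 active = replicate mean above 50%; inconclusive = above 50% but judged a plate artefact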;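 note: 50 nL library stock added to about 25 µL; numbers are from one replicate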
PrP 5UTR inh – inhibition of PrP 5' UTR reporter expression; cell-based PrP 5' UTR mRNA reporter, plate reader; 340,000 tested, 0.35% active; inhibition, % (test concentration not listed);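 active = every replicate at 50% or more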;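 note: 0 = median of the neutral control wells; tested in H4 reporter cells; numbers are from one replicate; inactives centre near -14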
Mtb hypoxia inh – PubChem AID 1159583. M. tuberculosis hypoxia-regulated fluorescent reporter, fluorescence. fluorescence inhibition, % (concentration not given with the values). 300,000 tested, 0.1% active;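 active = 35 to 45% if threefold the growth effect, above 45% if 1.5-fold the growth effect; inactive = the rest, general growth blockers included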;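 note: wells of about 50 µL received 100 nL stock; 0% = vehicle wells and 100% = reference inhibitor wells; whole bacteria with a GFP reporter of the hypoxia response; strong numbers were not always called active; many hits fall short of the cut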
Mtb hypoxia inh growth – also measured in Mtb hypoxia inh; calls as there; growth inhibition, %; measured here: M. tuberculosis growth (absorbance);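 0% = vehicle and 100% = reference antibiotic; read after six days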
* = called active by the depositor; u = inconclusive; x = not tested or not shown.

SMILES	Sa ugtP lethal	Sa RN4220 lethal	Autofluor counter	BJeLR viability	PrP 5UTR inh	Mtb hypoxia inh	Mtb hypoxia inh growth
O=C(NN=Cc1sc(N2CCCCC2)nc1-c1cccs1)C1CC1	3	-6.0	x	x	x	-4	0
Cn1c(=O)c2[nH]c(Cc3cccc4ccccc34)nc2n(C)c1=O	4	4.2	4198	x	-40	12	7
COc1ccc(-c2csc(Nc3ccccc3)[n+]2Cc2ccccc2)cc1	17	-3.9	4065	12	-22	-4	2
COc1ccc(CNC(=O)C2CCCN(c3nn4c(=O)cc(C)nc4s3)C2)cc1 (centres undefined)	-3	-0.3	4846	-2	-34	-6	2
COc1ccc(OCC(=O)NN=C(C)c2cc3ccccc3o2)cc1	-9	9.0	x	x	x	11	1
COc1ccc(CCNC(=O)C(=O)NCc2ccc(C)cc2)cc1OC	7	1.8	7915	-7	-8	-1	1
Cc1ccc(S(=O)(=O)NCCC(=O)N2CCC(C)CC2)cc1	-3	3.1	4395	x	-20	22	12
CC1=NNC(=O)C1CC(=O)NN=Cc1ccc(C)o1 (centres undefined)	6	3.5	x	x	x	14	2
COCCNC(=O)CN1C(=O)C(C)N=C(c2ccccc2)c2cc(Cl)ccc21 (centres undefined)	5	0.7	3023	-1	-33	9	5
COc1ccc(S(=O)(=O)N2CCCCC2)cc1NC(=O)Cc1c[nH]c2ccccc12	x	x	2728	-5	2	x	x
O=[N+]([O-])c1cc(C(F)(F)F)ccc1N1CCCC(O)C1 (centres undefined)	1	0.8	2605	6	-10	8	-4
Cc1cc(OCc2cc(C(=O)NCC3(C)COC3)no2)cc(C)c1Cl	0	7.6	6430	4	-9	5	8
CC1(C)CC(=O)C(C=Nc2cc(C(=O)c3ccccc3)ccc2N)=C(O)C1	10	7.5	6680	-10	-16	7	-6
Cc1nn(-c2ccccc2)c(C)c1/C=C/C(=O)OCC(=O)Nc1ncc(Cl)cc1Cl	-12	-1.0	2553	2	-32	-3	-6
O=C(COc1ccc(Cl)cc1Cl)NCCCn1ccnc1	-16	-3.0	3995	-4	-20	3	1
Cc1cnn(-c2cc(N/N=C/c3ccccc3Cl)ncn2)c1	x	x	3287	8	-3	x	x
O=C(Cc1ccccc1)NC(c1ccco1)c1c(O)ccc2ccccc12 (centres undefined)	8	3.2	2696	-4	5	13	7
COc1cc(-n2c(=O)c3ccccc3n(Cc3cccc(C)c3)c2=O)cc(OC)c1OC	8	1.3	4240	-14	-21	7	-1
COc1ccc(S(=O)(=O)Nc2c(C)cc(C)cc2C)c2cccnc12	12	14	5617	4	-3	2	5
CCN(CC)C(=O)c1ccc(Nc2nnc(-c3ccc(O)cc3)c3ccccc23)cc1	-8	4.2	3904	-9	2	-15	-3
CCOc1ccc(N2CC(C(=O)Nc3ccc(S(=O)(=O)N4CCCCC4)cc3)CC2=O)cc1 (centres undefined)	0	0.4	x	-2	-10	8	1
O=C(CN(Cc1ccco1)C(=O)c1ccccc1)Nc1ccc(Cl)c(Cl)c1	2	4.7	4642	1	-22	3	2
O=C1CCC(=O)N1CC(=O)N1c2ccccc2Sc2ccccc21	17	-0.3	7525	4	-12	10	1
Cn1nccc1C(=O)N/N=C/c1c(O)ccc2ccccc12	x	x	5812	34	46	x	x
NC(=O)CSc1nnc(-c2ccccc2)c(-c2ccccc2)n1	9	1.4	3528	2	-12	2	2

Arranged by molecular weight (descending): part of the list above
SMILES	Sa ugtP lethal	Sa RN4220 lethal	Autofluor counter	BJeLR viability	PrP 5UTR inh	Mtb hypoxia inh	Mtb hypoxia inh growth
Cc1nn(-c2ccccc2)c(C)c1/C=C/C(=O)OCC(=O)Nc1ncc(Cl)cc1Cl	-12	-1.0	2553	2	-32	-3	-6
Cc1cc(OCc2cc(C(=O)NCC3(C)COC3)no2)cc(C)c1Cl	0	7.6	6430	4	-9	5	8
O=C1CCC(=O)N1CC(=O)N1c2ccccc2Sc2ccccc21	17	-0.3	7525	4	-12	10	1

The list goes on.
SMILES	Sa ugtP lethal	Sa RN4220 lethal	Autofluor counter	BJeLR viability	PrP 5UTR inh	Mtb hypoxia inh	Mtb hypoxia inh growth
O=C(c1ccccc1)c1nc[nH]c1C(=O)Nc1ccccc1	-7	-13	4111	9	-16	18	12
CCC(C)c1ccc(NC(=S)NC(C)C2CCCO2)cc1 (centres undefined)	10	0.2	3993	4	-19	4	21
COc1cc2ccnc(Cc3cccc(OC)c3OC)c2cc1OC	0	-4.2	3685	15	0	5	3
Cc1cc(C)cc(Oc2ccc(S(=O)(=O)N3CCN(C)CC3)cn2)c1	5	2.6	u	-6	-13	10	10
CCOC(=O)c1c(C)[nH]c(C(=O)COC(=O)c2ccccn2)c1C	4	5.7	19471*	-7	-2	-1	2
CCN(CC)S(=O)(=O)c1cccc(-c2n[nH]c(=S)n2/N=C/c2ccc(OC(F)F)cc2)c1	x	x	2093	16	-12	x	x
COc1ccc(N2CCN(C(=O)CN(C)S(=O)(=O)c3cccs3)CC2)cc1	12	-1.3	5600	-1	-14	-4	8
CCOc1ccc(CCNC(=O)c2cc3c(s2)CS(=O)(=O)C3)cc1OCC	7	-1.4	5457	-11	-19	10	14
CCS(=O)(=O)N1CCN(C(=O)c2ccco2)CC1	4	3.3	11295	2	-12	2	5
CC(C)(C)NC(=O)C(c1ccc(F)cc1)N(Cc1cccs1)C(=O)c1ccc(CN2CCOCC2)o1 (centres undefined)	8	4.3	3519	1	-24	7	1
CC(OC(=O)C1=COCCO1)C(=O)c1ccc(Br)cc1 (centres undefined)	4	2.5	2868	x	-12	3	1
O=C(N/N=C/c1ccc(-c2ccc(Cl)c(C(=O)O)c2)o1)c1cc2c(ccc3ccccc32)o1	x	x	4846	4	7	x	x
COc1cccc(NC(=O)CC2C(=O)NC3CCCCC3N2C(=O)c2ccc(F)cc2)c1 (centres undefined)	-2	5.4	12217	-3	-16	2	-3
COc1cccc(CNc2cnc3ccccc3c2)c1O	-2	7.1	10564	-3	-66	5	3
Cc1[nH]nc2c1C(c1cc(Br)cs1)C(C#N)=C(N)O2 (centres undefined)	5	12	2423	21	0	11	7
O=C(Nc1ccc2c(c1)OCCO2)c1ccccc1	3	2.6	2859	8	-20	15	-1
CCOC(=O)N/N=C/c1ccc(F)cc1F	x	x	2238	-5	-17	x	x
Cc1cccc2cc(COC(=O)C(C)(C)C)c(=O)[nH]c12	-3	4.3	3242	-3	0	x	x
CCC(CC)COC(=O)C1=C(C)NC(=O)NC1c1ccc([N+](=O)[O-])cc1 (centres undefined)	6	2.6	3265	6	-9	9	7
O=C(Nc1ccon1)c1sc2ccccc2c1Cl	-5	1.0	10953	8	-83	3	11
COc1ccccc1N1CCN(C(CNC(=O)c2ccc3c(c2)OCO3)c2cccnc2)CC1 (centres undefined)	-4	-11	2774	8	-17	13	0
CC1Cc2ccccc2N1C(=O)CSc1nnc(-c2ccc(S(=O)(=O)N3CCCC3)cc2)n1C (centres undefined)	-2	2.3	2553	8	-9	-16	-2
COc1cccc(C(=O)O/N=C(\C)c2cnccn2)c1	x	x	3645	-5	-24	x	x
CCCOC(=O)C1C2C=C[C@]3(CN(CCc4ccccc4)C(=O)[C@H]13)O2 (some centres undefined)	0	-4.2	2250	-24	-85	19	8
CC(=NNC(=O)c1nnn(-c2nonc2N)c1CN1CCc2ccccc21)c1ccccc1O	-21	-13	x	x	x	-19	-2

Individual results from above.
Value of O=C(c1ccccc1)c1nc[nH]c1C(=O)Nc1ccccc1 under Sa RN4220 lethal: -13
Value of CCCOC(=O)C1C2C=C[C@]3(CN(CCc4ccccc4)C(=O)[C@H]13)O2 (some centres undefined) under Autofluor counter: 2250
Value of CCN(CC)S(=O)(=O)c1cccc(-c2n[nH]c(=S)n2/N=C/c2ccc(OC(F)F)cc2)c1 under PrP 5UTR inh: -12
Value of O=C(Nc1ccon1)c1sc2ccccc2c1Cl under Sa RN4220 lethal: 1.0

(list continues)
SMILES	Sa ugtP lethal	Sa RN4220 lethal	Autofluor counter	BJeLR viability	PrP 5UTR inh	Mtb hypoxia inh	Mtb hypoxia inh growth
COc1cc(CCC(=O)Nc2ncc(C)s2)cc(OC)c1OC	4	-0.5	5866	-1	-47	8	13
O=C(Nc1ccc(C(=O)N2CCCCC2)cc1)c1cccs1	11	-0.5	4381	6	-6	1	10
O=C1c2ccncc2C(=O)N1Cc1cccc(Cl)c1	-2	-3.6	1966	1	-5	x	x
COc1ccc(OCC(=O)Nc2ccc3c(c2)nc2n3CCSC2)cc1	-3	0.3	4766	5	-28	7	-6
Nc1ncc(-n2cncn2)c(-c2ccccc2)n1	6	6.3	2185	1	-12	4	5
CCOc1ccc(NC(=S)NCCCn2ccnc2)cc1	0	-0.8	2448	4	-16	3	-8
COc1cccc(CN2CCN(C(=O)Cc3ccccc3OC)CC2)c1	3	4.7	x	-1	-4	6	4
O=C(NCc1ccccc1Cl)c1cnc2ccccc2n1	x	x	5419	-14	-36	x	x
O=C(O)CCN1C(=O)/C(=C\c2cccc(OCC(=O)Nc3ccc(Cl)cc3)c2)SC1=S	-5	9.7	5795	-5	-21	14	2
CC(C)OC(=O)c1nnn(-c2nonc2N)c1CN1CCc2ccccc2C1	1	4.9	5610	x	-32	3	6
COc1cc2cnc(-c3ccccc3)c(C(=O)c3ccc(F)cc3)c2cc1OC	-11	12	3648	x	-2	8	11
CC(O)CN(CC(C)O)c1ccc2c(c1)Cc1cc([N+](=O)[O-])ccc1-2 (centres undefined)	-6	2.0	4484	x	-17	19	11
NS(=O)(=O)c1ccc(-n2cccc2C=O)cc1	4	4.4	4244	3	-21	13	1
Cc1cc2c(cc1S(=O)(=O)NCc1ccc(Cl)cc1)OCC(=O)N2	-5	-5.6	5387	7	-28	5	5
COC(=O)C1CCN(S(=O)(=O)CCNC(=O)c2cccc(OC)c2)CC1	x	x	4312	1	-3	x	x
CCOc1ccc(NC(=O)CSc2nnc(Cn3cnc([N+](=O)[O-])n3)n2CC)cc1	-1	24	4361	4	-17	2	-1
O=C(O)/C=C\c1ccccc1Oc1cccc(Cl)c1	-8	13	3522	-1	-13	6	4
CN(Cc1ccccn1)C(=O)CC1C(=O)NCCN1Cc1cccc(Oc2ccccc2)c1 (centres undefined)	1	2.4	2223	-2	-16	13	-1
COc1cccc(NC(=O)CSCC(=O)Nc2ccccc2)c1	5	4.7	2668	-3	-12	x	x
O=[N+]([O-])c1ccc(O)c(C=NNc2nn[nH]n2)c1	87*	95*	x	x	x	1	-1
CCCn1nc(NC(=O)c2ccco2)c2cc3ccc(C)cc3nc21	-18	8.9	3123	3	4	1	0
Cc1nn(C(C)C(=O)NC2C(=O)N3C(C(=O)O)=C(CSc4nnnn4C)CSC23)cc1Cl (centres undefined)	99*	100*	4177	8	-9	x	x
COc1ccccc1NC(=O)CSc1nnc(Cc2cccn2C)n1CCc1ccccc1	-8	2.3	24958*	-1	-27	7	-1
Cc1cccn2c(=O)c(C(=O)NCCCN3CCCCC3C)c(O)nc12 (centres undefined)	5	7.9	5602	5	-14	13	0
CC(C)(C)c1ccc(C(=O)NCC(=O)NN=Cc2cccs2)cc1	4	2.8	x	x	x	1	-7

For convenience, part of the list above:
SMILES	Sa ugtP lethal	Sa RN4220 lethal	Autofluor counter	BJeLR viability	PrP 5UTR inh	Mtb hypoxia inh	Mtb hypoxia inh growth
COc1cc(CCC(=O)Nc2ncc(C)s2)cc(OC)c1OC	4	-0.5	5866	-1	-47	8	13
O=C(Nc1ccc(C(=O)N2CCCCC2)cc1)c1cccs1	11	-0.5	4381	6	-6	1	10
O=C1c2ccncc2C(=O)N1Cc1cccc(Cl)c1	-2	-3.6	1966	1	-5	x	x

Complete entries as entered above. Values in the order: Sa ugtP lethal | Sa RN4220 lethal | Autofluor counter | BJeLR viability | PrP 5UTR inh | Mtb hypoxia inh | Mtb hypoxia inh growth
Listed for Cc1cccc2cc(COC(=O)C(C)(C)C)c(=O)[nH]c12 → -3 | 4.3 | 3242 | -3 | 0 | x | x
Listed for O=C(NN=Cc1sc(N2CCCCC2)nc1-c1cccs1)C1CC1 → 3 | -6.0 | x | x | x | -4 | 0
Listed for COc1ccc(S(=O)(=O)N2CCCCC2)cc1NC(=O)Cc1c[nH]c2ccccc12 → x | x | 2728 | -5 | 2 | x | x
Listed for O=C(O)/C=C\c1ccccc1Oc1cccc(Cl)c1 → -8 | 13 | 3522 | -1 | -13 | 6 | 4

Compound activity: PubChem BioAssay, several laboratories
